Bioassay records from PubChem.
Mtb MbtI inh: MbtI salicylate synthase inhibitors, primary screen, biochemical, fluorescence intensity; P9WFX0; purified MbtI enzyme, fluorescence intensity read-out; inhibition, %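 (about 17 µg/mL by stock and volumes)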; 100,000 compounds, 0.89% hits;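 active means above 50% in both replicates, above 80% if mildly self-fluorescent; inactive means the rest, strongly fluorescent compounds included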;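 further: 0% = mean of negative and 100% = mean of positive controls; one replicate is shown; some compounds called inactive have numbers as strong as hits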
Target sequence (P9WFX0 whole entry, looked up): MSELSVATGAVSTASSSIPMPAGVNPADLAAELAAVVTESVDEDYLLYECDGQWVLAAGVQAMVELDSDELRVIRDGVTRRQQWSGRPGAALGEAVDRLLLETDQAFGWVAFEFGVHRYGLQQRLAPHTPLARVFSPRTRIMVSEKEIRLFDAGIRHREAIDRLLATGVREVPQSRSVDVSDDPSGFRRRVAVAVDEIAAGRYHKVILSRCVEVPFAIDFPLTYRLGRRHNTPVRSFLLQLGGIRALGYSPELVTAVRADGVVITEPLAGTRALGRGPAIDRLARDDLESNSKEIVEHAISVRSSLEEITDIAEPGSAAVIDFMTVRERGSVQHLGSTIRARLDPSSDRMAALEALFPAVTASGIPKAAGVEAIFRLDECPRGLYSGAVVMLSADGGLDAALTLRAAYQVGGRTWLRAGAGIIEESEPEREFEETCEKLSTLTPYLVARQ
MenB inh: M. tuberculosis MenB inhibitors, primary screen, biochemical, absorbance; 100,000 compounds, 0.43% hits; inhibition, %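 (about 12 µg/mL by stock and volumes)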; MenB enzyme assay, absorbance read-out; some hits fall short of the stated cut; 1,4-dihydroxy-2-naphthoyl-CoA synthase (Mycobacterium tuberculosis (strain ATCC 25618 / …;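 active means mean of two replicates above 30%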;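 further: 0% = no compound and 100% = wells with inactive enzyme; the first replicate is given; strong numbers were not always called active; inactives centre near -10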
Target sequence (P9WNP5 whole entry, looked up): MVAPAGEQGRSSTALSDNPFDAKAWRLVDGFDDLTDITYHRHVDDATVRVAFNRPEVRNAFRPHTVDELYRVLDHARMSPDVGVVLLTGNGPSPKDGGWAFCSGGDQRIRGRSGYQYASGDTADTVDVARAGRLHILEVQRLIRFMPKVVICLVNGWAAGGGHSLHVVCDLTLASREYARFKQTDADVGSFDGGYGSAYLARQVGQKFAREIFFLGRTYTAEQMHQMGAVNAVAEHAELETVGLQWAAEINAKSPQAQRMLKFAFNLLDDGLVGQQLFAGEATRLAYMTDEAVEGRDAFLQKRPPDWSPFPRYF
Polio RdRp inh: poliovirus RdRp elongation inhibitors, primary screen, biochemical, fluorescence polarization, total intensity | Genome polyprotein (Poliovirus type 1 (strain Mahoney)), P03300 | 150,000 compounds, 0.66% hits | % elongation, % (compound at 16.7 µg/mL) | poliovirus polymerase elongation; active compounds read low; in the data active means % elongation below about 90%; further: some results filed as inactive read as strong as hits
Polio RdRp inh intensity: further read-out of Polio RdRp inh, marked with its call; % elongation; measured here: total intensity read-out; formula for this scale not given here;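 total fluorescence in place of polarization; lower means less elongation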
The depositor's hits bear a star; · = no result given; & = joins results of further samples. Rows are unselected; overall some 1.8% were active at least once.

molecule	MenB inh	Polio RdRp inh intensity	Polio RdRp inh	Mtb MbtI inh
CCOC(=O)N1CCN(C(=O)c2ccc3c(c2)N(Cc2ccccc2)C(=O)c2ccccc2S3=O)CC1 (stereo not drawn)	2	100	101	2
c1ccc(C2C3=C(CCCC3)Nc3ncnn32)cc1 (stereo not drawn)	·	105	101	0
CC1CCCC(C)N1CC#CCO (stereo not drawn)	-40	103	103	-5
Fc1ccccc1CNc1ncnc2c1oc1ccccc12	-21	109	103	2
COc1ccc(CCNc2nnc(Cc3ccc(Cl)cc3)c(=O)[nH]2)cc1OC	-3	110	103	-8
CCn1c(C(=O)O)c(CNCc2ccc3c(c2)OCO3)c2ccccc21	-7	108	104	22
CC(Cc1ccco1)NC(=O)Cn1c(=O)oc2ccccc21 (stereo not drawn)	14	94	101	16
Cc1ccc(Cn2cc(C(=O)Nc3cccnc3)ccc2=O)cc1	-18	104	101	7
Cc1cc2n(n1)CCCN2CC(=O)Nc1cccc(Cl)c1C	2	98	100	1
O=C(Oc1cccc2cccnc12)C1CCCCC1	-27	105	103	·
CC(C)NC(=S)N1CCN(Cc2ccc3c(c2)OCO3)CC1	-37	93	100	5
O=C(CSc1ccccc1)Nc1nnc(C2CC2)s1	-2	106	108	-17
Cc1cc(C)c2c(N)c(-c3nnc(SCc4ccc(Cl)cc4)n3C)sc2n1	1	115	108	-4
Nc1ncnc2c1nc(Br)n2C1O[C@H]2COP(=O)(O)O[C@@H]2[C@@H]1O (stereo partly drawn)	-6	100&99	102&102	-12
C/C(=N\N=C(N)N)c1ccccc1	-20	93	100	21
CC(=O)NC1C(=O)N=C(SCC(=O)NC(C)c2ccccc2)NC1=O (stereo not drawn)	-27	103	103	-5
CCn1c(SCc2nc3ccccc3c(=O)[nH]2)nnc1-c1ccccc1F	-3	103	99	2
CSc1ccc(C2NC(=O)c3ccccc3N2)cc1 (stereo not drawn)	-39	102	101	89
Cn1cccc1C(C(=O)NC1CCCCC1)N(C(=O)Cn1nnc2ccccc21)c1cnc2ccccc2c1 (stereo not drawn)	15	104	100	-5
Cc1csc(N(C(=O)Cc2csc(-c3ccccc3)n2)c2ccccc2)n1	-20	110	110	3
CC(C)CC(C(=O)O)n1c(O)c(C2=c3ccccc3=NC2=O)sc1=S (stereo not drawn)	-73	104	103	-16
COc1ccc(NC(=O)Cc2c[nH]c3ccccc23)cc1	-27	97	103	2
O=C(CSc1ccccc1F)Nc1nc(-c2cccs2)cs1	-68	·	·	10
CCC(C)N(CN1C(=S)SC2=NC(=O)CCCN21)C(C)CC (stereo not drawn)	-26	103	101	83
CNC(=O)c1ccc2c(c1)OCCO2	-13	109	104	-7

Continued:
molecule	MenB inh	Polio RdRp inh intensity	Polio RdRp inh	Mtb MbtI inh
Cc1ccc(CN2CCc3ccccc3C2)o1	-2	101	100	0
CCCCn1c(-c2ccccc2)nn(S(=O)(=O)c2ccc(Br)cc2)c1=O	-2	108	108	·
COc1cc(-c2nnc(COC(=O)C3=NN(c4cc(C)ccc4C)C(=O)CC3)o2)cc(OC)c1OC	-4	109	104	18
CCC(CO)NCC(=O)Nc1ccc(C)cc1F (stereo not drawn)	-2	112	106	-4
CCOC(=O)n1ccn(C)c1=S	4&4	100&103	101&99	3&-10
CCc1ccccc1NC(=S)Nc1ccc(Oc2ccc(Cl)cc2)cc1	-40	111	107	-4
c1ccc2[nH]c(C3CCCCC3)nc2c1	·	104	101	3
Cc1cc(Br)ccc1NC(=O)CN(C)C(=O)C1=COCCO1	-26	108	103	10
CC(=O)N1N=C(COc2ccc(Cl)cc2Cl)OC1c1ccco1 (stereo not drawn)	4	103	100	-10
CCn1cc(C(=O)NC2CCCCCC2)c(=O)c2cc(F)c(N3CCN(C(C)=O)CC3)cc21	-13	103	105	-22
CN(C)C(=S)c1ccc2ccccc2n1	-27	103	101	10
O=C(O)CC1=C(c2cccs2)CCC1=O	-1	100	102	36
COc1ccc(-c2nc(CNS(=O)(=O)N(C)C)cs2)cc1	-21	100	105	21
CCSCC1COC(c2cccn2Cc2ccc(F)cc2)=N1 (stereo not drawn)	-30	102	101	-9
Cc1onc(-c2c(Cl)cccc2Cl)c1C(=O)N=S(C)(C)=O	10	103	103	-9
Cc1ccc2nc(SC(C)C(=O)Nc3ccc(C#N)cc3)[nH]c2c1 (stereo not drawn)	-4	100	100	-8
CC(C)N(C(=O)Nc1ccccc1F)c1ccccc1	-8	104	102	-11
COC(=O)CN1C(=O)COc2cc(S(=O)(=O)NCc3ccc(Cl)cc3)ccc21	9	105	100	-5
CN1CCCN(C(=O)c2cnccn2)c2nc3ccccc3nc21	-10	103	102	0
CSc1ccc(S(=O)(=O)N(C)C)cc1	-10	102	101	-13
CCn1c(-c2ccccc2)c(C2=NNC(=NC(C)COC)SC2)c2ccccc21 (stereo not drawn)	-6	103	99	9
CC1=CC(=C(C#N)C#N)C=C(C)N1Cc1ccncc1	19	95	102	104
O=C(O)c1cnn2c1ncc1c3ccccc3ccc12	21	102	99	19
Cc1nn(Cc2ccc(C(=O)n3cc(Cl)cn3)o2)c(C)c1Cl	-12	107	103	·
CSc1ccccc1NC(=O)CC(=O)Nc1ccccc1SC	-23	103	99	-10

Next part.
molecule	MenB inh	Polio RdRp inh intensity	Polio RdRp inh	Mtb MbtI inh
O=C(Nc1ccccc1)Nc1ccccc1Br	-3	101	99	0
CC(C)(C)Nc1ncnc2c1cnn2Cc1ccccc1	-25	94	100	·
O=C(O)c1cc2cc(Cl)cc(Br)c2oc1=O	-7	94	100	-2
O=C(O)C12CC3CC(C1)CC(c1ccccc1)(C3)C2	·	106	102	-8
N#CC1C(=O)NC(c2ccccc2)C=C1c1ccccc1 (stereo not drawn)	·	97	101	-26
CN1CCN(C=Nc2nc3ccccc3nc2N2CCCC2)CC1	-168	104	99	-24
COCCNC(=O)Cn1nc(C(F)(F)F)cc1C	1	105	101	-3
Clc1ccccc1OCCn1cc(/C=N/n2cnnc2)c2ccccc21	-45	102	100	43
COc1ccc(CN2CC(C(=O)O)CC2=O)cc1 (stereo not drawn)	-7	103	102	-1
O=C(OCC(=O)N1CCCCCC1)c1n[nH]c(=O)c2ccccc12	10	103	104	0
CCCNC(=O)C1CCN(C(=O)N2CCOc3ccccc32)CC1	11	101	100	-15
Cc1ccc(-c2nc3cc(Cl)ccc3o2)cc1NC(=O)c1ccco1	-9	104	103	-54
Cc1ccc(N)cc1NS(C)(=O)=O	8	102	99	0
CCOCCC(=O)Nc1ccc(Cl)cc1	-17	103	103	-14
CC(=O)Nc1c(C#N)c(C(C)(C)C)cn1C	3	101	99	-1
CNC(=O)C1=C(C)Nc2nc3ccccc3n2C1c1ccc(F)cc1 (stereo not drawn)	-26	98	101	-5
CSC(=S)N(C)c1nc2ccccc2s1	·	98	103	0
Cc1ccc(C(=O)CC(C(=O)O)N2CCN(C)CC2)cc1 (stereo not drawn)	31*	110	104	·
COc1cccc(CNc2ccc3c(c2)ncn3C(C)(C)C)c1OC	1	108	102	-43
C=CCn1c2ccccc2c2nnc(SCCCC(=O)c3ccc(F)cc3)nc21	13	104	102	-4
CCOC(=O)c1sc2nc(NC(=O)C(C)(C)C)sc2c1C	-3	103	98	12
Cc1noc(C)c1COC(=O)C1=NNC(=O)CC1	8	95	103	18
Cc1cc2n(n1)C(c1cccnc1)Nc1ccccc1-2 (stereo not drawn)	-16	100	99	-31
CCOc1ccc(Oc2nc(NCC(C)C)nc(OC)n2)nn1	-3	97	98	4
COc1ccc(Nc2nc3[nH]c(=O)cc(O)c3s2)cc1	-81	106	101	13

Structures from the list above that have a thiophene ring, fused or not (four):
molecule	MenB inh	Polio RdRp inh intensity	Polio RdRp inh	Mtb MbtI inh
Cc1cc(C)c2c(N)c(-c3nnc(SCc4ccc(Cl)cc4)n3C)sc2n1	1	115	108	-4
O=C(CSc1ccccc1F)Nc1nc(-c2cccs2)cs1	-68	·	·	10
O=C(O)CC1=C(c2cccs2)CCC1=O	-1	100	102	36
CCOC(=O)c1sc2nc(NC(=O)C(C)(C)C)sc2c1C	-3	103	98	12

Continuation:
molecule	MenB inh	Polio RdRp inh intensity	Polio RdRp inh	Mtb MbtI inh
NNC(=O)c1ccccc1	3	107	102	2
Cc1cc(-c2ccc(S(=O)(=O)Nc3ccccc3)s2)n[nH]1	4	96	101	23
CC(C)CN(CC(C)C)S(=O)(=O)N1CCC(C(=O)N2CCc3ccccc3C2)CC1	2	106	102	0
N#CCCS(=O)(=O)c1ccc(Oc2ccc(S(=O)(=O)CCC#N)cc2)cc1	-9	106	102	·
Cc1cc(C(=O)COC(=O)Cn2c(C(F)(F)F)nc3ccccc32)c(C)n1Cc1ccco1	-8	107	103	8
CCOc1c(OC)cc(C#N)cc1C(=O)O	6	105	102	-13
Cc1ccc(C)c(-c2nc3ccc(N)cc3[nH]2)c1	-4	104	99	116
O=C(Cc1cn2ccsc2n1)NN=C1c2ccccc2-c2ccccc21	-2	100	98	-10
CCc1ccc(C(O)(c2ccccc2)C(CN2CCOCC2)c2ccccc2)cc1 (stereo not drawn)	6	105	102	-5
O=C(CN1C(=O)c2ccccc2C1=O)Oc1ccc2ccccc2c1	-1	113	104	·
NC(=O)c1ccc(OCC(=O)NC(=O)NCC2COc3ccccc3O2)cc1 (stereo not drawn)	-32	·	·	-12
CC12CC3(C)CC(C)(C1)CC(C(=O)NN)(C2)C3	-1	109	104	-1
Cc1cccn2c(=O)c(/C=C3\SC(=S)NC3=O)c(NCc3ccco3)nc12	-46	127	102	15
CCN1C(=O)CC(NC23CC4CC(CC(C4)C2)C3)C1=O (stereo not drawn)	-18	·	·	0
FC(F)(F)c1ccc(NCc2ccc3c(c2)OCO3)nc1	-32	102	100	-29
CN1C(=O)/C(=C\C(=O)c2cccs2)c2ccccc21	-6	100	100	22
COC(=O)c1cc2sccc2n1CC(=O)Nc1cc(OC)cc(OC)c1	-35	104	104	3
CC(C)=C1N=C(c2ccc(Cl)cc2)OC1=O	-77	101	104	-5
NC1=NC(=O)C(CC(=O)Nc2cccc(C(=O)NCCc3ccc(S(N)(=O)=O)cc3)c2)S1 (stereo not drawn)	-4	99	92	-5
Cc1nn(-c2ccccc2)c(C)c1CN(C)CC(=O)Nc1ccc(S(=O)(=O)N(C)C)cc1	-14	99	101	-6
CCCn1c(SCC(=O)c2cccs2)n[nH]c1=O	-15	·	·	64*
Oc1cc2c(cc1CN1CCc3ccccc3C1)CCC2	5	103	105	3
N=c1c2c(-c3ccccc3)c(-c3ccccc3)oc2ncn1CCCO	8	104	101	113
CCc1ccc(NC(=O)CSc2nnc(CNC(=O)c3ccc4c(c3)OCO4)n2C)cc1	-21	106	99	-2
COc1ccc(S(=O)(=O)N(C)C2(C)CCS(=O)(=O)C2)cc1C (stereo not drawn)	-19	106	103	-2

Ordered by SMILES length (rising): three of the compounds above.
molecule	MenB inh	Polio RdRp inh intensity	Polio RdRp inh	Mtb MbtI inh
CC12CC3(C)CC(C)(C1)CC(C(=O)NN)(C2)C3	-1	109	104	-1
N#CCCS(=O)(=O)c1ccc(Oc2ccc(S(=O)(=O)CCC#N)cc2)cc1	-9	106	102	·
Cc1cc(C(=O)COC(=O)Cn2c(C(F)(F)F)nc3ccccc32)c(C)n1Cc1ccco1	-8	107	103	8

Going on with the list:
molecule	MenB inh	Polio RdRp inh intensity	Polio RdRp inh	Mtb MbtI inh
CCNC(=O)c1ccc(-n2nc(C(F)(F)F)c3c2CCCC3)cc1	-2	101	101	-7
Cc1ccc(C)c(C(=O)COC(=O)c2ccc[nH]c2=O)c1	1	102	99	4
Cc1ccccc1OCc1nc(-c2ccc(NC(=O)c3ccc(Br)o3)cc2)no1	8	102	99	2
COc1cccc(-c2nc(-c3cc(C)n(C4CC4)c3C)cs2)c1OC	-22	125	111	-28
O=c1c(CN2CCN(Cc3ccccc3)CC2)coc2ccccc12	18	102	98	14
CN(C)CCC(=O)c1ccc2c(c1)OCCCO2	-8	109	110	·
O=C(CCn1ccnc1)OCc1ccccc1	-21	104	108	-5
Cc1cc(-c2ccc(S(=O)(=O)NC3CCCc4ccccc43)s2)n[nH]1 (stereo not drawn)	-11	102	102	-21
CN1CCN(c2ccc(NS(=O)(=O)c3cccc4nonc34)cc2)CC1	-19	97	105	-12
O=C(/C=C1\SC(=O)NC1=O)Nc1ccc(F)cc1	-21	94	102	5
O=C(N/N=C1\CC(=O)c2ccccc21)c1ccc(CSc2nc3ccccc3o2)cc1	-66	106	96	-6
O=C1CNCCN1C1CCCCC1	-45	101	103	-5
CCCc1cc(=O)oc2c(C)c3oc(C)c(C)c3cc12	0	99	102	36
CN(C)c1ccc(/C=N/NC(=O)CN2CC(c3ccccc3)CC2=O)cc1 (stereo not drawn)	-5	101	102	1
CCOC(=O)CC1=Nn2c(nnc2C2CCCCC2)SC1	-16	107	105	3
Nc1ccc(C(=O)NN=C2C3CC4CC2CC(O)(C4)C3)cc1	-31	101	100	-3
NC(=S)N(c1ccccc1)c1ccccc1	32*	101	101	5
Cc1ccc(C)c(SCC(=O)NC(=O)NC2CCCC2)c1	5	100	105	6
